# Menin MLL FP FL: displaces fluorescein MLL peptide from human menin. FP activity change, % at 61.4 µM. Fluorescence polarization, fluorescein-MLL peptide displacement from menin. AID 1766. 290,000 tested, under 10 active; inconclusive = falling polarisation curve, or a change in total fluorescence; inactive = total fluorescence flat and polarisation flat or rising; no compound was filed as active; the % refers to the polarisation; negative = inhibition;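 also: % of control where 0% means no effect; inhibitors lower the polarisation; unlabelled MLL peptide was the positive control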
# gsp agonist: activates gsp, the McCune-Albright syndrome mutation; gsp mutant cells, cAMP HTRF, 30 min; control for the full effect not named in the record; Potency, µM (highest dose often 76.9 µM), for inactives: top-dose activation (cAMP increase), hits mostly activators; hit rate 0.13% among 340,000; AID 624287; active = well fitted activation curve with a large enough effect; inconclusive = small, poorly fitted or top-dose-only effect, or another doubt; inactive = no such curve, though single readings can be large or run the other way; cell line not stated here;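 also: phosphodiesterase inhibitor Ro 20-1724 added with compounds to block cAMP breakdown; potency is read from the fitted curve at half-maximal effect; nearly all actives have a fitted effect of over 60% in size; about a fifth of the inactives were tested at one dose only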
#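 Cells stably selected in G418 were plated at 2000/well, grown 16-24 hr, then given compounds in DMSO with the PDE inhibitor […] (300 uM solution added) for 30 min at 37C; cAMP was read by HTRF.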
# gsp antag: antagonizes gsp, the McCune-Albright syndrome mutation; Potency, µM (top dose mostly 76.9 µM), for the others: at the highest dose activity change, negative = inhibition, usual class: inhibitors; AID 624288; hit rate 0.4% among 340,000; gsp-mutant cells, cAMP HTRF, 30 min; control for the full effect not named in the record; active = falling curve of any shape with a large fitted effect; inconclusive = falling curve, mostly with a smaller effect; inactive = flat or rising curve; cell line not stated here;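 also: intracellular cAMP measured with PDE inhibitor Ro 20-1724 present during compound exposure; potency is read from the fitted curve at half-maximal effect; % is scaled to controls: 0 for no effect and ±100 for the full control effect; nearly all actives have a fitted effect of over 65% in size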
#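 Cells, 2000/well, grown 16–24 h in DMEM 10% FBS with 0.5 mg/ml G418, then compounds plus […] (300 uM addition stock), 30 min at 37C. cAMP read by HTRF (cAMP-d2 and anti-cAMP antibody-K in lysis buffer) after 30 min RT.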
# CtBP-E1A blk: CtBP/E1A binding inhibition; activity change, % (no concentration beside the values); AlphaScreen GST-E1A/His-CtBP binding, 1536-well; stronger effect = lower value; control for the full effect not named in the record; hit rate 0.49% among 340,000; AID 651724; in the data active means activity change below about -65%; inconclusive means about -30% to -65%; inactive means above about -30%; also: % is scaled to controls: 0 for no effect and ±100 for the full control effect; compound concentration not given in the record
#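 Steps: dispense buffer (Tris pH 8.0, NaCl 300 mM, TCEP 1 mM, BSA, Tween 20); add 5X protein mix (GST-E1A, His-CtBP, 125 nM each); pin 23 nL compound; 2 h at 37 °C, dark; add 5X beads (50 ug/mL); 1 h; read.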
# ClpP mod: qHTS Assay for Activators of ClpP; purified B. subtilis ClpP, FRET peptide cleavage, 20 min; Potency, µM (series often up to 57.5 µM), inactives show top-dose activity change, negative = active; hit rate 1.9% among 340,000; AID 651965, 2013; active = well fitted falling curve with a large enough effect; inconclusive = small, poorly fitted or top-dose-only effect; inactive = no such curve, though single readings can be large or run the other way; also: potency is read from the fitted curve at half-maximal effect; the source files actives as falling curves though it sought activators and does not explain the sign; nearly all actives have a fitted effect of over 65% in size; many hits overshoot -100%
# Target sequence (P80244 whole entry, looked up): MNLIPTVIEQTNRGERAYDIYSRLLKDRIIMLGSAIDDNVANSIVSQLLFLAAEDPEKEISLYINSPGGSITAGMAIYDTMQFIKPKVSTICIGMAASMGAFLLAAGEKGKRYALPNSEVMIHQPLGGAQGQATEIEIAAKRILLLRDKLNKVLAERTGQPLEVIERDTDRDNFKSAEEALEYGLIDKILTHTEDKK
#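 FRET quenching reversal measured ClpP activation: 10 microg/mL B. subtilis ClpP at pH 8 with the FRET-FV decapeptide, read at 430 nm after 320 nm excitation. The 20-min minus 0-min signal was scaled between DMSO/no-enzyme wells and ADEP (5.8 microM final).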
# Sfp inh: inhibitors of Bacillus subtilis Sfp phosphopantetheinyl transferase. Q9F4F7. AID 1490. Potency, µM, for the others: max response, negative = inhibition, usual class: inhibitors. hit rate 3.5% among 310,000. Biochemical Sfp PPTase activity, qHTS; active = well fitted inhibition curve with a large enough effect; inconclusive = small, poorly fitted or top-dose-only effect, or another doubt; inactive = no such curve, though single readings can be large or run the other way;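 also: the enzyme is Sfp with the accession as filed and its product quenches rhodamine fluorescence; potency is read from the fitted curve at half-maximal effect; 0% = enzyme reaction without inhibitor and -100% = no enzyme wells; top concentration of the series not given in the record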
#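 Step 1, compound plus 15 nM Sfp-PPTase, 15 min, room temperature. Step 2, add rhodamine-CoA (5 uM) and BHQ-2-YbbR (12.5 uM). Step 3, read 525/598 nm fluorescence at 0 and 30 min.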
# TRPV1 PAM: human TRPV1 potentiation; Q8NER1; TRPV1-expressing cells, Fluo-8 calcium influx, capsaicin EC20 potentiation; host cell line not named in the record; control for the full effect not named in the record; potentiation, % at 8.33 µM; hit rate 0.02% among 320,000; AID 540277; active means potentiation above 80%; inconclusive means 30% to 80%; inactive means below 30%; also: 0% is about no effect
# Target sequence (Q8NER1 whole entry, looked up): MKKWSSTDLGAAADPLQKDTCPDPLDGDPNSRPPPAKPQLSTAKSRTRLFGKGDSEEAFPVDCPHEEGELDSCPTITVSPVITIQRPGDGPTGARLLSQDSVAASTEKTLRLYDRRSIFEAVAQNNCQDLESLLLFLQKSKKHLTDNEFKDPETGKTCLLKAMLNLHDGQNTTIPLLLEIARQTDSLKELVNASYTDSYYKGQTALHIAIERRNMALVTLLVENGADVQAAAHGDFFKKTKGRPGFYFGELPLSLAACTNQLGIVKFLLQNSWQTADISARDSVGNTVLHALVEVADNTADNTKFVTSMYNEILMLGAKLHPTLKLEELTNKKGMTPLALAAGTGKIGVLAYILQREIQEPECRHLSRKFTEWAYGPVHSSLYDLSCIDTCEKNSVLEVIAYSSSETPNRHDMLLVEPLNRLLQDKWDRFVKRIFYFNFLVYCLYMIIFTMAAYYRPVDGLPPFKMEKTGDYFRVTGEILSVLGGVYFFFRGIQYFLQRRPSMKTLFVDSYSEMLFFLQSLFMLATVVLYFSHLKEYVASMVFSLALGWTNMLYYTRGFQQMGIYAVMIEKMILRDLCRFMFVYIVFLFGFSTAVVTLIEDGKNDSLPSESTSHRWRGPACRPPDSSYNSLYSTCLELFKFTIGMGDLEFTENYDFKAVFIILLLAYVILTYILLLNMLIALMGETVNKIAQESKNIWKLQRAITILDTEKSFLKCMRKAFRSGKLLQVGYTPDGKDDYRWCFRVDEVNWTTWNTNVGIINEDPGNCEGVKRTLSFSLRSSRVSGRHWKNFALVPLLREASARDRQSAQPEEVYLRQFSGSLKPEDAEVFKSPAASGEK
#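 TRPV1-expressing cells were cultured overnight at 35.5C and loaded with Fluo-8 calcium dye for 40 to 90 min at room temperature. After a 10 s baseline, compound was added and calcium influx was read kinetically for 3 min (ex 480/em 520 nm).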
# The depositor's hits bear a star; u = inconclusive; x = no result given; & = joins results of further samples; [ ] = another dose, or the depositor's remark. Not a hit list; 5.3% or so of the library scored in one or more.
SMILES,Menin MLL FP FL,gsp agonist,gsp antag,CtBP-E1A blk,ClpP mod,Sfp inh,TRPV1 PAM
O=S(=O)(c1ccc(S(=O)(=O)N2CCCN(Cc3ccccc3)C2)cc1)N1CCCCCC1,-0.9,22%,-2%,5,1.1%,5%,-4
O=C(CNC(=O)c1cccc(OC(F)F)c1)OCC(=O)c1ccccc1,-1.2,2%,9%,-22,x,10%,1
CCCCC(=O)NC(=S)Nc1nnn(CCC)n1,x,1%[15.4 µM],12%,-1,x,14µM*,-1
CC(C)(C)c1ccc(-c2noc(C(=O)NN)n2)cc1,-5.5,2%[15.4 µM],-4%,-1,x,11%,-21
COc1ccc(-c2n[nH]c3c2CN(C(=O)c2ccc(F)cc2)CC3)cc1,2.6,u,-18%,-19,0.4%,6%,u
O=[N+]([O-])c1ccc(CS(=O)(=O)c2ncn[nH]2)cc1,30[activator],1%,8%,5,x,14%,15
CC(=O)NCCC1CCN(C(=O)C2CCC(=O)N(C3CCCC3)C2)CC1 (stereo not given),x,-12%,3%,x,-0.7%,19%,10
Cn1ncnc1SCc1cn2cccnc2n1,1.2,-5%[15.4 µM],10%,4,x,11%,14
COc1cccc2c1cc1c(=O)n(CC(=O)N3CCCCCC3)nc(C)n12,x,16%,0%,x,4.9%,3%,6
CC(=O)c1ccc2c(ccc3ccccc32)c1,2.7,0%,-3%,7,-29%,u,20
COC(=O)c1ccc(-n2nnnc2SCC(=O)Nc2cc(OC)ccc2OC)cc1,1.2,-1%,-7%,4,u,-2%,5
CCOc1cc(/C=N/NC(=O)C(=O)NCc2ccc3c(c2)OCO3)ccc1OCC(=O)N1CCOCC1,-2.2,11%,1%,9,-6.4%,11%,3
O=C(Cc1cccs1)Nc1ccon1,2.4,-34%,10%,-1,-1.4%,8%,-7
COc1cccc(NC(=O)c2ccccc2C(F)(F)F)c1,-3.1,2%,-12%,-7,0.7%,11%,13
COC(=O)Cc1c(C(=O)OC)nnn1-c1cccc(C(F)(F)F)c1,-1.3,-10%[15.4 µM],-5%,0,x,-8%,-9
CCOC(=O)C1=C(C)NC(C)=C(C(=O)OCC)C1C(=O)OCC(=O)NC(C)c1ccccc1 (stereo not given),x,14%[15.4 µM],-15%,1,-12%,x,4
CN=C(Nc1ccc(C(=O)OC)s1)c1ccccc1,-3.5,19%,-4%,4,-0.5%,5%,1
CCCCNC(=O)c1c(C)cc(=O)oc1C,7.2,-18%,10%,4,-0.1%,0%,3
COc1ccc(C2CC(c3cccc(Cl)c3)=NN2c2ccc(S(N)(=O)=O)cc2)cc1 (stereo not given),x,x,-11%,42,3.9%,x,x
CNC(=S)NC12CC3CC(CC(C3)C1)C2,0.5,-12%[15.4 µM],9%,4,0.4%,-3%,-2
Nc1nnnn1/N=C/c1cccc(O)c1,2.4,17%,2%,-17,-1.8%,19%,10
O=C(CSc1nc(C2CC2)nc2ccccc12)Nc1ccc2c(c1)OCCO2,0.7,5%,14%,-7,0.2%,-8%,14
O=C(c1ccccc1)N(Cc1nc2ccccc2c(=O)[nH]1)C1CCCC1,48[activator],-4%[15.4 µM],-11%,2,x,6%,20
COc1ccc(/C=C2\SC(=O)N(CCNC(=O)Cn3cnnn3)C2=O)cc1,0.4,1%,-9%,3,-2.6%,-1%,2
O=C(O)c1cccc(-c2nnn(Cc3ccccc3Cl)n2)c1,1.1,-39%[inhibitor],-7%,5,-2.6%,4%,-2
Cc1ccc(C)c(NC(=O)CN(C)C(=O)c2ccc3[nH]c4c(c3c2)CC(C)CC4)c1 (stereo not given),x,19%,-6%,0,-4.7%,x,-1
Cc1c(Cl)cccc1NC(=O)CNC(=O)C1CC(=O)N(C2CCCC2)C1 (stereo not given),x,0%,4%,x,-0.6%,x,x
COC(=O)C[C@H]1C[C@H]2c3cc(NC(=O)C4CCC4)ccc3O[C@H]2[C@H](CO)O1,x,-6%,x,-2,1.4%,x,x
COCCCN1CN(Cc2ccccc2)CNC1=S,1.5,-32%[inhibitor],1%,7,0.9%,10%,0
COC(=O)c1ccc(NC(=O)CCN2C(=O)NC(C)(C)C2=O)cc1,x,30%,9%,2,3.3%,x,5
Cc1cnc(C)c(N2CCN(C(=O)C3CCC(=O)N(CCc4cccc(F)c4)C3)CC2)n1 (stereo not given),x,18%,5%,3,-9.6%,16%,3
CCNc1nc(NCC)n2c(SCC(=O)NC34CC5CC(CC(C5)C3)C4)nnc2n1,1.1,-2%,1%,3,-2.7%,6%,-3
Cc1ccccc1C(=O)NC1CCN(Cc2nnnn2C2CCCC2)CC1,4.3,5%,5%,-4,-3.6%,13%,17
c1ccc(C2NCCNC2c2ccccc2)cc1 (stereo not given),x,-35%[inhibitor],18%,-1,-2.6%,x,x
CSc1nsc(SCC(=O)Nc2ccc(Cl)c(C(=O)O)c2)n1,2.0,14%[15.4 µM],0%,0,x,2%,29
O=C(O)/C=C/c1cccc(NC(=O)c2ccccc2)c1,-0.3,-9%[15.4 µM],4%,2,x,14%,-4
Cc1sc(-c2ccncc2)nc1OC(=O)c1ccc(Cl)cc1,u,31%,-13%,8,-14%,-15%,-4
Cc1noc(C)c1CSCC(=O)N(C)CC(=O)Nc1ccc(Cl)c(C(F)(F)F)c1,x,-9%[15.4 µM],1%,7,x,x,-12
COc1ccc(OC)c(S(=O)(=O)Nc2ccc(-c3ccc4nnc(C)n4n3)cc2)c1,x,16%[15.4 µM],-5%,1,-5.2%,x,7
CCCCOc1ccc(/C=C/C(=O)NC2=Nc3ccccc3NC(C)=C2C(=O)OCC)cc1OC,u,-17%,-15%,-1,x,13%,16
Cc1cc(C(=O)Nc2ccc(Cl)cc2)c(C)n1-c1ccccc1,-0.4,-4%[15.4 µM],-37%,-1,0.9%,4%,-1
C=CCn1c(COc2ccc(OC)cc2)nnc1SCn1nnc2ccccc2c1=O,x,7%,-17%,-2,1.1%,-3%,-9
Cc1ccc(Cn2ncc3c(N4CCN(Cc5ccc(Cl)cc5)CC4)ncnc32)cc1,-0.2,2%,-5%,-18,-2.6%,3%,5
Cc1cc(OCC(=O)OCC(=O)N(C)C2CCS(=O)(=O)C2)ccc1Cl (stereo not given),x,-6%[15.4 µM],6%,4,-0.4%,x,-26
Nc1nc(N)c(N=Nc2ccc(Cl)cc2)c(=O)[nH]1,-0.4,-16%,-6%,-21,-2.1%,22%,7
O=C(Nc1ccc(Br)cc1F)c1sccc1-n1cccc1,2.9,u,-14%,12,2.4%,1%,-7
COc1ccc(NC(=O)CCCc2nc3ccccc3c(=O)[nH]2)cc1Cl,x,13%,0%,u,x,x,x
O=c1c(-c2ccc3c(c2)OCCO3)coc2c(CN3CCOCC3)c(O)ccc12,2.7,27%,-8%,10,u,5%,-11
CC(C)(C)SC(C(=O)N1CCOCC1)c1ccc(Br)cc1 (stereo not given),0.5,-7%,5%,7,x,24%,-5
O=C(CCNC(=O)c1ccc(Cl)cc1)Nc1ccccc1Cl,3.7,8%,-8%,2,0.5%,10%,16
CN(C)CCCNS(=O)(=O)c1ccc(Cl)s1,8.0,7%[15.4 µM],7%,-1,x,1%,-4
Cc1ccccc1OCC(=O)NC(=S)Nc1ccc2c3c(cccc13)CC2,2.4,21%,-6%,-1,-14%,14%,12
CCCCC(=O)c1c(O)c2ccccc2oc1=O,1.9,-45%[inhibitor],-7%,4,0.9%,6%,1
COc1ccc(/C=C/C(=O)c2ccccn2)cc1,u,1%,6%,1,x,28µM*,-24
O=C(Nc1ccc(S(=O)(=O)Nc2ncccn2)cc1)C1CC(=O)N(c2ccccc2)C1 (stereo not given),x,u,6%,6,-1.8%,x,-5
CCN(CC)CCNC(=O)c1cc(Br)c(N)cc1OC,-1.4,x,-1%,3,1.6%,-2%&23%,23
CC(NC(=O)CSc1nnc(-c2cccc(S(=O)(=O)N3CCCCC3)c2)o1)C12CC3CC(CC(C3)C1)C2 (stereo not given),0.9,-4%,u,-2,0.6%,21%,14
CNc1oc(-c2ccccc2)nc1S(=O)(=O)c1ccc(C)cc1,x,4%,-10%,-5,-4.6%,1%,-10
O=S(=O)(c1cccs1)N1CCN(c2ncccn2)CC1,0.7,-10%,-4%,3,-16%,6%,7
Cc1ccc(-n2c(C)cc(C(=O)CSc3nnnn3C)c2C)cc1,3.1,u,-4%,-12,1.3%,u,-22
# Carrying on.
SMILES,Menin MLL FP FL,gsp agonist,gsp antag,CtBP-E1A blk,ClpP mod,Sfp inh,TRPV1 PAM
CCOc1ccc(S(=O)(=O)N(C)CC(=O)NCCN2CCOCC2)cc1,-0.9,1%,5%,-1,x,21%,6
C=CCSc1cc(C)nc2c(-c3ccccc3)cnn12,1.6,13%,u,x,3.2%,-2%,-11
CCn1ncc(C2=NOC(C(=O)NCc3ccccc3)C2)c1C (stereo not given),-0.6,-10%,25%,7,0.0%,79µM*,-8
Cc1cc(OCC(=O)OC(C)C(=O)Nc2ccc(N3CCOCC3)cc2)ccc1Cl (stereo not given),x,10%,-18%,-9,2.5%,x,-19

# Shown with two lines to a compound: entries from further up
# Values run as follows: Menin MLL FP FL, gsp agonist, gsp antag, CtBP-E1A blk, ClpP mod, Sfp inh, TRPV1 PAM
CCn1ncc(C2=NOC(C(=O)NCc3ccccc3)C2)c1C (stereo not given)
 : -0.6, -10%, 25%, 7, 0.0%, 79µM*, -8
Cc1cc(OCC(=O)OC(C)C(=O)Nc2ccc(N3CCOCC3)cc2)ccc1Cl (stereo not given)
 : x, 10%, -18%, -9, 2.5%, x, -19

# Limited to gsp antag (6 entries from above):
canonical_smiles | gsp antag
COc1ccc(NC(=O)CCCc2nc3ccccc3c(=O)[nH]2)cc1Cl | 0%
O=c1c(-c2ccc3c(c2)OCCO3)coc2c(CN3CCOCC3)c(O)ccc12 | -8%
CC(C)(C)SC(C(=O)N1CCOCC1)c1ccc(Br)cc1 (stereo not given) | 5%
O=C(CCNC(=O)c1ccc(Cl)cc1)Nc1ccccc1Cl | -8%
CN(C)CCCNS(=O)(=O)c1ccc(Cl)s1 | 7%
Cc1ccccc1OCC(=O)NC(=S)Nc1ccc2c3c(cccc13)CC2 | -6%
